HPGD inh: blocks human HPGD enzyme activity; AID 894; P15428; Potency, µM, for the others: top-dose activity change, negative = inhibition, actives largely listed as inhibitors; purified HPGD, NADH fluorescence kinetic, PGE2 substrate; 150,000 compounds, 4.3% hits; active = well fitted inhibition curve with a large enough effect (not every such curve was filed as active); inconclusive = small, poorly fitted or top-dose-only effect, or another doubt; inactive = no such curve, though single readings can be large or run the other way;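 further: top concentration of the series not given in the record; plate controls included wells without enzyme; inactives centre near -10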
Target sequence (P15428 whole entry, looked up): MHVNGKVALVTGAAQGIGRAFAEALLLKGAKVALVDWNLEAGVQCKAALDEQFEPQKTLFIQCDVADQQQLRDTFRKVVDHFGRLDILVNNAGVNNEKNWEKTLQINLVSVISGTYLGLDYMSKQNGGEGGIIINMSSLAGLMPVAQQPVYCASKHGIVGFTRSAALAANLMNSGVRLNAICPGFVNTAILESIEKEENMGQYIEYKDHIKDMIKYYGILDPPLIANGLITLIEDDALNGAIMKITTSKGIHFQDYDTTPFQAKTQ
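NADH formation kinetics: reaction with 30 uM PGE2 and 1 mM NAD+ (final), 20 nM enzyme, Tris-HCl pH 8 with Tween 20, after 15 min compound preincubation at room temperature. Fluorescence change, last versus first of five reads.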
Active calls of the source: *; & = joins results of further samples. On the % scale 0 is the no-effect control and ±100 the full control effect; potency means the concentration at half of the fitted maximal effect. This is a subset; the hit share may differ from the screen's.

How did OCCN(C=NC1=NN(c2cccc(C(F)(F)F)c2)CC1)CCO do in these assays?
HPGD inh: -11.6%

Results for CCOC(=O)CN1C(=O)S/C(=C/c2ccc(O)c([N+](=O)[O-])c2)C1=O ?
HPGD inh: -29.6%

What do the screens show for `COc1ccc(-c2nnc(OCc3nc4ccccc4n3C)c3ccccc23)cc1`?
HPGD inh: inconclusive

What do the screens show for `CCc1ccc(Cn2nnc(C(=O)NCc3ccccc3OC)c2N)cc1`?
HPGD inh: 1.8%

What do the screens show for `Cc1ccc(-n2ncc3c(=O)[nH]c(SCC(=O)N4CCCc5ccccc54)nc32)cc1`?
HPGD inh: -28.8%

How did O=C1NC(c2ccccc2)=C(c2ccc3ccccc3n2)C(c2ccc(F)cc2)N1 (configuration not stated) do in these assays?
HPGD inh: -15.5%

What do the screens show for `CCCCSc1nnc(-c2ccc(NC(C)=O)cc2)n1C`?
HPGD inh: inconclusive

What do the screens show for `COC1C=CO[C@@]2(C)Oc3c(C)c(O)c4c(O)c(c5c(nc6cc(C)ccn65)c4c3C2=O)NC(=O)/C(C)=C\C=CC(C)C(O)[C@@H](C)C(O)C(C)[C@@H](OC(C)=O)C1C` (some centres not stated)?
HPGD inh: -13.3%

How did COCCCn1c(-c2ccsc2)nc2c1c(=O)[nH]c(=O)n2Cc1ccccc1 do in these assays?
HPGD inh: inconclusive

Results for CCCCOc1ccc(OCCCC)c2c1NC1(N2)C(=O)N(C(C)=O)c2ccccc21 ?
HPGD inh: 0.6%

How did C=CCNC(=O)c1ccc(Sc2ccc(C)cc2)c([N+](=O)[O-])c1 do in these assays?
HPGD inh: -9.7%

What do the screens show for `Brc1ccc(Nc2nc3ccccc3n3nnnc23)cc1`?
HPGD inh: inconclusive

Results for CCOC(=O)C1(S(=O)(=O)c2ccc(Cl)cc2)CCN(Cc2ccc(C)cc2)CC1 ?
HPGD inh: -8.5%

Results for CC(C)(C)c1ccc(OCC(=O)OCCNC(=O)c2cccnc2)cc1 ?
HPGD inh: -14.4%

How did CCOC(=O)Cn1c(=O)oc2cc(S(=O)(=O)N3CCn4c3nc3ccccc34)ccc21 do in these assays?
HPGD inh: -16.1%

Results for Cn1nnnc1SCC(=O)NCc1ccco1 ?
HPGD inh: -4.7%

Results for CN1CCC(=C2c3ccccc3Sc3ccccc32)CC1 ?
HPGD inh: 2.3%&-0.3%

What do the screens show for `CCC(C)NS(=O)(=O)c1ccc(OCC(=O)N2CCCCC2)cc1` (configuration not stated)?
HPGD inh: -8.8%

Results for Cc1cc2c(c(=O)n1Cc1ccc3c(c1)OCO3)C(c1cccnc1)C(C#N)=C(N)O2 (configuration not stated) ?
HPGD inh: -18.3%

What do the screens show for `O=C(CSc1nc2ccccc2[nH]1)Nc1c(F)cccc1F`?
HPGD inh: -7.1%

How did CC(C)CNS(=O)(=O)c1ccc(S(=O)(=O)N2CCN(CCC#N)CC2)cc1 do in these assays?
HPGD inh: -4.7%

What do the screens show for `O=C1OCCC1Sc1nnc(-c2ccco2)o1` (configuration not stated)?
HPGD inh: -14.5%

How did CN(C)CCNC(=O)C1CCCNC1=O (configuration not stated) do in these assays?
HPGD inh: -15.2%

How did Cc1cccc(C(=O)NC(=S)N2CCc3ccccc3C2)c1 do in these assays?
HPGD inh: -18.6%

What do the screens show for `O=C1/C(=C/c2cccc([N+](=O)[O-])c2)CCc2ccccc21`?
HPGD inh: inconclusive

How did COC(=O)c1cc(-c2ccc(Br)cc2)on1 do in these assays?
HPGD inh: -8.5%

What do the screens show for `CCN(CC)C(=O)CSc1nnc(SCc2ccc(Cl)cc2)s1`?
HPGD inh: -13.0%

Results for O=C(CCC(=O)c1cccs1)OCC(=O)N1CCN(C(=O)c2ccco2)CC1 ?
HPGD inh: -5.4%

What do the screens show for `O=C(CCC(=O)c1cccs1)c1cccs1`?
HPGD inh: -28.5%

Results for Cn1c(SCC(=O)c2ccc3c(c2)OCCO3)nnc1C1CC1 ?
HPGD inh: -7.6%

Results for CC(=O)c1ccc(Cl)c(Cl)c1Cl ?
HPGD inh: -0.5%

Results for O=C(CSc1ccc(-c2ccccc2)nn1)N1CCN(c2ccccc2)CC1 ?
HPGD inh: -9.2%

Results for COc1ccccc1NS(=O)(=O)c1ccc(Br)s1 ?
HPGD inh: -7.8%

How did COc1cc(/C=C\c2ccc(OC)cc2OC)cc(OC)c1 do in these assays?
HPGD inh: inconclusive

What do the screens show for `CN(CC(CC(=O)Nc1nncs1)c1ccccc1)S(=O)(=O)c1ccc(Br)cc1` (configuration not stated)?
HPGD inh: -10.5%

Results for CC(=O)Oc1c(C)c(C)c2c(c1C)CCC(C)(CCCC(C)CCCC(C)CCCC(C)C)O2 (configuration not stated) ?
HPGD inh: -2.7%&-0.5%&-3.3%

What do the screens show for `O=c1c2ccccc2c(-c2ccc(F)cc2)nn1-c1ccc(C(F)(F)F)cc1`?
HPGD inh: -3.8%

Results for CC(C)(C#N)Nn1cnnc1 ?
HPGD inh: -10.5%

What do the screens show for `Cc1ccc2[nH]c(C)c(CCNC(=O)c3cc4cc([N+](=O)[O-])ccc4oc3=O)c2c1`?
HPGD inh: -12.5%

Results for Cn1nnnc1SCc1cc(=O)[nH]c2ccccc12 ?
HPGD inh: -5.1%

Results for CCOC(=O)CC(N)c1ccc(OC)cc1 (configuration not stated) ?
HPGD inh: -3.4%

How did Cc1ccc(-n2c(C)cc(/C=N/NC(=O)CC3(C)OCCO3)c2C)c(C)c1 do in these assays?
HPGD inh: -20.5%

Results for COCCNC(=O)CSc1nc2c(n1-c1ccccc1)CCCC2 ?
HPGD inh: -12.2%

What do the screens show for `Cc1cccc(NCc2nc3ccccc3n2Cc2ccccc2)c1`?
HPGD inh: -4.1%

Results for CC(=O)Nc1ccc(Sc2ncccc2C(=O)Nc2ccc(OC(F)(F)F)cc2)cn1 ?
HPGD inh: -15.3%

Results for CC(=O)N1CCC(N(CCN2CCOCC2)C(=S)Nc2cccc(C)c2)CC1 ?
HPGD inh: -10.9%

How did Cc1ccc(NC(=S)c2nc3ccccc3[nH]2)cc1 do in these assays?
HPGD inh: -12.5%

Results for COc1cccc(OCCn2cc(/C=N/NC(=O)c3ccncc3)c3ccccc32)c1 ?
HPGD inh: -12.2%

Results for CCOc1cccc(CNc2ccc(O)cc2)c1OCc1ccc(Cl)cc1Cl ?
HPGD inh: -7.1%

How did COC(=O)c1cc2c(ccn2-c2ccc(F)cc2)n1C(C)C do in these assays?
HPGD inh: -27.8%

How did COc1cccc(CN(C)CC(=O)Nc2cc3oc4ccccc4c3cc2OC)c1 do in these assays?
HPGD inh: inconclusive

Results for CC12CC(NC(=O)N1c1cccc(C(=O)Nc3ncn[nH]3)c1)c1ccccc1O2 (configuration not stated) ?
HPGD inh: 4.8%

Results for O=C(CCn1cnc2ccccc2c1=O)Nc1ccc(Cl)c(Cl)c1 ?
HPGD inh: 1.8%

How did CC(C)(C)NC(=O)C(c1ccc(F)cc1)N(Cc1ccco1)C(=O)c1csnn1 (configuration not stated) do in these assays?
HPGD inh: -8.0%

Results for Cc1cc(C)cc(N(C(=O)Cc2cccs2)C(C(=O)NC2CCCCC2)c2ccccn2)c1 (configuration not stated) ?
HPGD inh: -7.0%

What do the screens show for `Cc1ccccc1S(=O)(=O)Cc1ccc(C(=O)NCCN2CCN(Cc3ccccc3)CC2)o1`?
HPGD inh: -7.9%

Results for Cc1cc(C)n(-c2cc(N3CCN(S(=O)(=O)c4ccc(C)c(C)c4)CC3)ccc2[N+](=O)[O-])n1 ?
HPGD inh: -0.5%

How did COc1cc(OC)c2c(-c3cccc(-c4ccc(N(C)C)cc4)c3)cc(=O)oc2c1 do in these assays?
HPGD inh: -9.2%

How did COc1ccc(C2CC(c3ccccc3)=NN2C(=O)c2ccc(Cl)c([N+](=O)[O-])c2)cc1 (configuration not stated) do in these assays?
HPGD inh: -9.2%

Results for COc1ccc(C2NCCO2)cc1OC (configuration not stated) ?
HPGD inh: -12.5%

How did CCOC(=O)c1cc(-c2ccncc2)nc2c1c(C)nn2C do in these assays?
HPGD inh: inconclusive

What do the screens show for `O=C(COC(=O)c1ccccc1Br)NCc1ccccc1`?
HPGD inh: inconclusive

What do the screens show for `Cc1cc(C)c(S(C)(=O)=O)c(Sc2ccc(Cl)cc2)n1`?
HPGD inh: -5.8%

How did COc1ccccc1S(=O)(=O)Cc1ccc(C(=O)N2CCN(c3ccccc3)CC2)o1 do in these assays?
HPGD inh: -6.2%

How did COC(=O)Cc1c(C)c2c(O)cc(C)cc2oc1=O do in these assays?
HPGD inh: -25.2%

Results for Cn1c(-c2ccc(Br)cc2)cnc1NCc1cccnc1 ?
HPGD inh: -8.2%

How did CCC1SC2=NC(C)=C(C(=O)OC)C(c3cccs3)N2C1=O (configuration not stated) do in these assays?
HPGD inh: -15.8%

How did Cc1c(/C=C/C(=O)c2ccc(O)cc2)cnn1C do in these assays?
HPGD inh: inconclusive

What do the screens show for `O=C(O)c1ccccc1CSc1nc2ccccc2o1`?
HPGD inh: -11.7%

Results for CCC(=O)Nc1ccc(S(=O)(=O)Nc2cccnc2)cc1 ?
HPGD inh: -8.8%

What do the screens show for `Cc1cccc(Nc2ncnc3ccccc23)c1`?
HPGD inh: -26.4%

Results for Cc1nc2ccc(S(=O)(=O)NCC(=O)N(C)Cc3ccco3)cc2s1 ?
HPGD inh: 5.4%

Grouped by structure: the compounds so far with a cyano group (3)
Results for Cc1cc2c(c(=O)n1Cc1ccc3c(c1)OCO3)C(c1cccnc1)C(C#N)=C(N)O2 (configuration not stated) ?
HPGD inh: -18.3%

How did CC(C)CNS(=O)(=O)c1ccc(S(=O)(=O)N2CCN(CCC#N)CC2)cc1 do in these assays?
HPGD inh: -4.7%

Results for CC(C)(C#N)Nn1cnnc1 ?
HPGD inh: -10.5%

(continued)
Results for COc1ccccc1NC(=O)N(Cc1ccco1)Cc1cc2cc(C)cc(C)c2[nH]c1=O ?
HPGD inh: inconclusive

What do the screens show for `COc1ccc(CNC(=S)NC2CCCC2)cc1`?
HPGD inh: -9.0%

How did Cc1nn(Cc2ccc(Cl)cc2Cl)c(C)c1NC(=O)c1ccc(COc2cc(Cl)ccc2Cl)o1 do in these assays?
HPGD inh: -13.1%

Results for CCCn1c(SCC(=O)c2c(C)[nH]c(C)c2C(=O)OCC)nc2ccccc21 ?
HPGD inh: 0.3%

What do the screens show for `CCN1CC(O)=C(c2nc3ccccc3s2)C1=N`?
HPGD inh: inconclusive

Results for COc1cccc(-c2cnc(NCc3cc(Cl)ccc3O)n2C)c1 ?
HPGD inh: -25.8%

Results for CCCn1c(N2CCN(Cc3cccc(C)c3)CC2)nc2c1c(=O)[nH]c(=O)n2C ?
HPGD inh: -7.5%

How did CN1c2ccsc2C(O)=C(C(=O)Nc2ccccc2)S1(=O)=O do in these assays?
HPGD inh: -1.5%

What do the screens show for `CC1=C(C(=O)Nc2cccnc2)C(c2ccncc2)n2nnnc2N1` (configuration not stated)?
HPGD inh: -11.8%

How did COc1ccc(/C=N/NS(=O)(=O)c2ccccc2)cc1OS(=O)(=O)c1ccc(C)cc1 do in these assays?
HPGD inh: -4.1%

Results for O=C(/C=C/c1ccc(Cl)cc1)N1CCN(c2ccc(Cl)cc2[N+](=O)[O-])CC1 ?
HPGD inh: -12.5%

Results for CCn1cc(C(=O)N2CCCC2)c(=O)c2cc(S(=O)(=O)N(C)C)ccc21 ?
HPGD inh: -16.0%

Grouped by structure: the compounds so far containing a tert-butyl group
Results for CC(C)(C)c1ccc(OCC(=O)OCCNC(=O)c2cccnc2)cc1 ?
HPGD inh: -14.4%

How did CC(C)(C)NC(=O)C(c1ccc(F)cc1)N(Cc1ccco1)C(=O)c1csnn1 (configuration not stated) do in these assays?
HPGD inh: -8.0%

The listing picks up with the 2 entries that preceded the break.
Results for O=C(/C=C/c1ccc(Cl)cc1)N1CCN(c2ccc(Cl)cc2[N+](=O)[O-])CC1 ?
HPGD inh: -12.5%

Results for CCn1cc(C(=O)N2CCCC2)c(=O)c2cc(S(=O)(=O)N(C)C)ccc21 ?
HPGD inh: -16.0%

How did Cc1ccc(N2CN(Cc3cccnc3)CNC2=S)c(C)c1 do in these assays?
HPGD inh: -7.2%

How did CCn1c(=O)c(C(=O)CN2CCOCC2)c(N)n(Cc2ccccc2)c1=O do in these assays?
HPGD inh: -9.8%

How did CCOC(=O)c1[nH]c(C)c(CCC(=O)OC)c1C do in these assays?
HPGD inh: -5.0%

How did O=C(CN(c1cccc(C(F)(F)F)c1)S(=O)(=O)c1ccc(Cl)c([N+](=O)[O-])c1)NCc1ccccc1 do in these assays?
HPGD inh: -8.4%

What do the screens show for `CC(=O)OC1CC(C)(C)N(OC(=O)c2ccc(N)cc2)C(C)(C)C1`?
HPGD inh: -10.7%

What do the screens show for `[O][C@H]1[C@@H](O)[C@@H](CO)O[C@@H](O[C@@H]2[C@@H]3OC[C@H]2O[C@H](O[C@@H]2[C@@H](O)[C@H](C[C@@H]4[C@@H]5OC[C@H]4O[CH][C@@H]5O)O[C@H](CO)[C@@H]2OS(=O)(=O)O)[C@@H]3OS(=O)(=O)O)[C@@H]1O`?
HPGD inh: -5.5%

Results for COc1cccc(N(CC(=O)NCCSc2ccccn2)S(C)(=O)=O)c1 ?
HPGD inh: -2.5%

How did C[N+](C)(C)CCCCCC(=O)/C=N/O do in these assays?
HPGD inh: -2.8%

How did COc1ccc2nc(NC(=O)C(NS(=O)(=O)c3cccc4nsnc34)C(C)C)sc2c1 (configuration not stated) do in these assays?
HPGD inh: -6.1%

What do the screens show for `C/C(Cc1ccccc1)=N\NC(=O)c1ccc(F)cc1`?
HPGD inh: -16.4%

How did CC(=O)c1ccc(N2Cc3ccccc3/C2=N\C(=O)Nc2ccccc2)cc1 do in these assays?
HPGD inh: -7.5%

Results for O=C(CSc1nnc(-c2ccc(S(=O)(=O)N3CCCC3)cc2)n1CC1CCCO1)NC1CC1 (configuration not stated) ?
HPGD inh: -10.7%

What do the screens show for `CC(=O)N1CCN(c2ccc(NCc3ccc4c(c3)OCO4)cc2)CC1`?
HPGD inh: -14.4%

What do the screens show for `CCN1C(=O)N[C@@H](CCc2ccccc2)[C@H](C(C)=O)[C@H]1C`?
HPGD inh: -1.3%

Results for Cc1ccc(-n2cc(C(=O)c3ccc(F)cc3)nn2)cc1Cl ?
HPGD inh: -8.1%
